Sfp inh: blocks B. subtilis Sfp PPTase activity; Q9F4F7; Biochemical Sfp PPTase activity, qHTS; Potency, µM, without a hit: max response, negative = inhibition, actives largely listed as inhibitors; 310,000 tested, 3.5% active; active = well fitted inhibition curve with a large enough effect; inconclusive = small, poorly fitted or top-dose-only effect, or another doubt; inactive = no such curve, though single readings can be large or run the other way;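 also: the enzyme is Sfp with the accession as filed and its product quenches rhodamine fluorescence; potency is read from the fitted curve at half-maximal effect; 0% = enzyme reaction without inhibitor and -100% = no enzyme wells; top concentration of the series not given in the record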
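After 15 min at room temperature with compound, 15 nM Sfp received 5 uM rhodamine-CoA plus 12.5 uM BHQ-2-ybbR (50 mM Hepes pH 7.6, 10 mM MgCl2). Rate came from the fluorescence difference over 30 min, ex 525/em 598 nm.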
ClpP mod: qHTS Assay for Activators of ClpP; purified B. subtilis ClpP, FRET peptide cleavage, 20 min; 340,000 tested, 1.9% active; Potency, µM (series often up to 57.5 µM), without a hit: at the top dose activity change, negative = active; active = well fitted falling curve with a large enough effect; inconclusive = small, poorly fitted or top-dose-only effect; inactive = no such curve, though single readings can be large or run the other way; also: potency is read from the fitted curve at half-maximal effect; the source files actives as falling curves though it sought activators and does not explain the sign; nearly all actives have a fitted effect of over 65% in size; many hits overshoot -100%
Target sequence (P80244 whole entry, looked up): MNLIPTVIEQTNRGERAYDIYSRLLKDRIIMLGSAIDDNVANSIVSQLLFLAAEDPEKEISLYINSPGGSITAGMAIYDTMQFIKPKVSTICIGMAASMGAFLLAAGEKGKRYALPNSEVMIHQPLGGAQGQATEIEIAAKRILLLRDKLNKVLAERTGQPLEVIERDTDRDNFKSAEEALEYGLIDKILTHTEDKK
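Buffer: 100 mM Tris/HCl pH8, 100 mM KCl, 0.05% low protease BSA, 2.5% glycerol, 0.01% Tween-20. ClpP 10 microg/mL final; 20 min RT; delta FRET normalized to ADEP and DMSO controls.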
TRPV1 PAM: potentiators of human vanilloid receptor 1 (TRPV1). 320,000 tested, 0.02% active. TRPV1-expressing cells, Fluo-8 calcium influx, capsaicin EC20 potentiation; host cell line not named in the record; control for the full effect not named in the record. potentiation, % at 8.33 µM; active means potentiation above 80%; inconclusive means 30% to 80%; inactive means below 30%; also: 0% is about no effect
Target sequence (Q8NER1 whole entry, looked up): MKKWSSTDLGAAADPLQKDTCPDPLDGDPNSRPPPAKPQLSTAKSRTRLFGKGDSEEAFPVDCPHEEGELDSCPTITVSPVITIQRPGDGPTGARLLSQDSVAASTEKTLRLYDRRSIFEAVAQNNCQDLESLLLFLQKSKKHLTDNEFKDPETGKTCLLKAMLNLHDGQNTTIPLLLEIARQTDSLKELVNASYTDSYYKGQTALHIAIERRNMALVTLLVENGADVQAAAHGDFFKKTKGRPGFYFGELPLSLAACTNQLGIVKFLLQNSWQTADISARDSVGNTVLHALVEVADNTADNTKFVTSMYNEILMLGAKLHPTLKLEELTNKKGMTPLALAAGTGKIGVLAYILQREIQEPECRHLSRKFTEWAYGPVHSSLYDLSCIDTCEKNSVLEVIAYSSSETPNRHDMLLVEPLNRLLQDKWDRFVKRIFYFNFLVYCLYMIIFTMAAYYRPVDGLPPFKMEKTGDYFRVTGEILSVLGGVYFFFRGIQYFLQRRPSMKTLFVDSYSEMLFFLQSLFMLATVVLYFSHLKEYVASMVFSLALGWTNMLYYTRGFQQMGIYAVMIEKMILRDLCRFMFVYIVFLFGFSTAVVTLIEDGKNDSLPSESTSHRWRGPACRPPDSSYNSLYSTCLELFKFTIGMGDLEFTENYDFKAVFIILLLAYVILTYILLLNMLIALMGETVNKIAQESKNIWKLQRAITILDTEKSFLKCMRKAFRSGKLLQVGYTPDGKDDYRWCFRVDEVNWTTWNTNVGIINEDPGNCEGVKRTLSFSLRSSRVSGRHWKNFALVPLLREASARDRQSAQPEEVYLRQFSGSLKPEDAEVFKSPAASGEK
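TRPV1-expressing cells were cultured overnight at 35.5C and loaded with Fluo-8 calcium dye for 40 to 90 min at room temperature. After a 10 s baseline, compound was added and calcium influx was read kinetically for 3 min (ex 480/em 520 nm).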
gsp antagonist: antagonizes gsp, the McCune-Albright syndrome mutation; AID 624288; gsp-mutant cells, cAMP HTRF, 30 min; control for the full effect not named in the record; 340,000 tested, 0.4% active; Potency, µM (top dose mostly 76.9 µM), for the others: top-dose activity change, negative = inhibition, hits mostly inhibitors; active = falling curve of any shape with a large fitted effect; inconclusive = falling curve, mostly with a smaller effect; inactive = flat or rising curve; cell line not stated here;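 also: intracellular cAMP measured with PDE inhibitor Ro 20-1724 present during compound exposure; potency is read from the fitted curve at half-maximal effect; % is scaled to controls: 0 for no effect and ±100 for the full control effect; nearly all actives have a fitted effect of over 65% in size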
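G418-selected cells were plated in DMEM/10% FBS for 16-24 h at 37C, then treated with compounds plus the PDE inhibitor […] (300 uM solution added) for 30 min at 37C. Intracellular cAMP was measured by HTRF after 30 min lysis at room temperature.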
Menin-MLL FL inh: menin-MLL binding inhibition, fluorescein peptide | AID 1766 | 290,000 tested, under 10 active | Fluorescence polarization, fluorescein-MLL peptide displacement from menin | FP activity change, % at 61.4 µM; inconclusive = falling polarisation curve, or a change in total fluorescence; inactive = total fluorescence flat and polarisation flat or rising; no compound was filed as active; the % refers to the polarisation; negative = inhibition;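 also: % of control where 0% means no effect; inhibitors lower the polarisation; unlabelled MLL peptide was the positive control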
gsp agonist: activates gsp, the McCune-Albright syndrome mutation | gsp mutant cells, cAMP HTRF, 30 min; control for the full effect not named in the record | Potency, µM (series often up to 76.9 µM), without a hit: top-dose activation (cAMP increase), actives largely listed as activators | 340,000 tested, 0.13% active | AID 624287; active = well fitted activation curve with a large enough effect; inconclusive = small, poorly fitted or top-dose-only effect, or another doubt; inactive = no such curve, though single readings can be large or run the other way; cell line not stated here;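 also: phosphodiesterase inhibitor Ro 20-1724 added with compounds to block cAMP breakdown; potency is read from the fitted curve at half-maximal effect; nearly all actives have a fitted effect of over 60% in size; about a fifth of the inactives were tested at one dose only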
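Cells stably selected in G418 were plated at 2000/well, grown 16-24 hr, then given compounds in DMSO with the PDE inhibitor […] (300 uM solution added) for 30 min at 37C; cAMP was read by HTRF.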
CtBP-E1A inh: CtBP/E1A binding inhibition. AlphaScreen GST-E1A/His-CtBP binding, 1536-well; active compounds read low; control for the full effect not named in the record. 340,000 tested, 0.49% active. activity change, % (no concentration beside the values). AID 651724; in the data active means activity change below about -65%; inconclusive means about -30% to -65%; inactive means above about -30%; also: % is scaled to controls: 0 for no effect and ±100 for the full control effect
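Protein mix (5X: 125 nM each GST-E1A, His-CtBP) was incubated with pinned compound 2 h at 37 deg C in dark, in 50 mM Tris pH 8.0 buffer with 300 mM NaCl. Glutathione donor and nickel acceptor beads followed; AlphaScreen signal read after 1 h.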
* hit, by the source's call; [ ] = dose if it differs, or a comment. Rows were taken by chance (roughly 5.3% active in at least one column).

What do the screens show for `Cc1ccc2nc(C)c(C(=O)NN=C3CCCCCC3)n2c1`?
Sfp inh: 3%; ClpP mod: -4.4%; TRPV1 PAM: -6; gsp antagonist: 6%; Menin-MLL FL inh: 10; gsp agonist: inconclusive; CtBP-E1A inh: 0

What do the screens show for `O=C(CSc1cccc[n+]1[O-])N1CCc2ccccc21`?
Sfp inh: 10%; ClpP mod: 0.5%; TRPV1 PAM: 24; gsp antagonist: 5%; Menin-MLL FL inh: -3.4; gsp agonist: 28%; CtBP-E1A inh: 1

How did COc1cc(/C=N\NC(=O)c2ccc(=O)[nH]n2)cc(OC)c1OC do in these assays?
Sfp inh: -7%; ClpP mod: 1.5%; TRPV1 PAM: 2; gsp antagonist: 4%[15.4 µM]; Menin-MLL FL inh: -0.2; gsp agonist: -37%[inhibitor]; CtBP-E1A inh: 0

What do the screens show for `Cc1c(C(=O)NCc2ccccc2)c(-c2ccccc2)nn1-c1ccccc1`?
Sfp inh: 16%; ClpP mod: 1.1%; TRPV1 PAM: -12; gsp antagonist: -5%; Menin-MLL FL inh: 3.9; gsp agonist: 10%; CtBP-E1A inh: -1

What do the screens show for `C#CCN(C[C@H]1[C@H](OC(=O)Nc2cccs2)[C@H](OC(=O)Nc2cccs2)C[C@H]2C(=O)N(c3ccccc3)C(=O)[C@@H]12)S(=O)(=O)c1ccc(C)cc1`?
ClpP mod: -1.4%; gsp agonist: -53%[inhibitor]; CtBP-E1A inh: -1

Results for O=C(Cn1c(=O)[nH]c2ccsc2c1=O)NC1CCCCC1 ?
Sfp inh: 13%; ClpP mod: 1.2%; TRPV1 PAM: 3; gsp antagonist: 16%; Menin-MLL FL inh: -0.7; gsp agonist: 19%; CtBP-E1A inh: 3

Results for Cc1c(C(=O)N2CCCCC2)oc2ccccc12 ?
ClpP mod: -0.1%; gsp antagonist: 12%; gsp agonist: -15%[15.4 µM]; CtBP-E1A inh: 5

How did O=C(CCCCCCCCC(=O)N1CCCCC1)N1CCCCC1 do in these assays?
ClpP mod: 1.0%; gsp antagonist: -12%; gsp agonist: 1%; CtBP-E1A inh: 7

Results for CCCCOc1ncnc2c1[nH]c1ccc(OC)cc12 ?
Sfp inh: 10%; ClpP mod: inconclusive; TRPV1 PAM: 10; gsp antagonist: 11%; Menin-MLL FL inh: 2.7; gsp agonist: -2%; CtBP-E1A inh: 6

Results for CS(=O)(=O)N(CC(=O)Nc1ccc2c(c1)OCCO2)c1ccc2c(c1)OCO2 ?
Sfp inh: -1%; ClpP mod: -1.5%; TRPV1 PAM: -13; gsp antagonist: 5%; Menin-MLL FL inh: -2.1; gsp agonist: -9%; CtBP-E1A inh: 5

What do the screens show for `CCn1nc(C)cc1C(=O)N1CCCC(C(=O)c2cccc(OC)c2)C1` (stereo not drawn)?
Sfp inh: -7%; ClpP mod: -2.6%; TRPV1 PAM: inconclusive; gsp antagonist: -8%; Menin-MLL FL inh: 1.7; gsp agonist: -37%; CtBP-E1A inh: -2

Results for COc1cc(C(C(=O)NC2CCCC2)N(C(=O)Cc2cccs2)C2CC2)cc(OC)c1OC (stereo not drawn) ?
Sfp inh: 13%; TRPV1 PAM: -24; gsp antagonist: -12%; Menin-MLL FL inh: 0.0; gsp agonist: -11%[15.4 µM]; CtBP-E1A inh: inconclusive

Results for NC(=O)c1ccsc1NC(=O)COC(=O)c1ccc(Cl)cc1 ?
ClpP mod: 4.2%; TRPV1 PAM: 6; gsp antagonist: -9%; gsp agonist: 1%

How did C=CCc1c(C)nc(SCc2ccccc2)[nH]c1=O do in these assays?
Sfp inh: -10%; ClpP mod: 0.7%; TRPV1 PAM: 24; gsp antagonist: 7%; Menin-MLL FL inh: -0.3; gsp agonist: -11%[15.4 µM]; CtBP-E1A inh: 14

What do the screens show for `CC(C)c1ccc(S(=O)(=O)N2CCN(C(C)C(=O)Nc3ccccc3-c3ccccc3)CC2)cc1` (stereo not drawn)?
Sfp inh: 5%; ClpP mod: -2.5%; TRPV1 PAM: 15; gsp antagonist: -9%; Menin-MLL FL inh: -0.7; gsp agonist: 8%; CtBP-E1A inh: 5

Results for Cn1cc(CNC(=O)CC2C(=O)NCCN2CC(C)(C)C)cn1 (stereo not drawn) ?
Sfp inh: 14%; TRPV1 PAM: -2; gsp antagonist: -8%; Menin-MLL FL inh: -17; gsp agonist: -10%; CtBP-E1A inh: 1

What do the screens show for `COc1cc(C(C(=O)NC2CCCC2)N(C(=O)c2snc(C(N)=O)c2N)c2ccccc2)cc(OC)c1OC` (stereo not drawn)?
Sfp inh: 20%; TRPV1 PAM: 10; gsp antagonist: -9%; Menin-MLL FL inh: 1.2; gsp agonist: -2%; CtBP-E1A inh: 5

How did COc1ccc(-c2csc(NC(=O)CN3C(=O)CCC3=O)n2)cc1 do in these assays?
Sfp inh: 3%; ClpP mod: -0.3%; TRPV1 PAM: 9; gsp antagonist: -3%; Menin-MLL FL inh: -3.8; gsp agonist: 6%; CtBP-E1A inh: 7

Results for O=C(COc1ccc(/C=C2/NC(=O)NC2=O)cc1)Nc1ccc(F)cc1 ?
Sfp inh: 15%; ClpP mod: -7.1%; TRPV1 PAM: 1; gsp antagonist: -2%; gsp agonist: -13%; CtBP-E1A inh: -1

What do the screens show for `CCO[C@H]1OC(C(=O)O)=C[C@@H](c2csc3ccccc23)[C@@H]1CCCO`?
Sfp inh: 21%; ClpP mod: -1.3%; TRPV1 PAM: 3; gsp antagonist: 3%; Menin-MLL FL inh: -0.8; gsp agonist: inconclusive

How did C=CCC1(/C=N/O)CCOC(C)(C)C1 (stereo not drawn) do in these assays?
Sfp inh: 31%[activator]; TRPV1 PAM: 0; gsp antagonist: 10%; Menin-MLL FL inh: -0.9; gsp agonist: 15%[15.4 µM]; CtBP-E1A inh: 7

Results for CCN1N=C(c2ccccc2)Cn2c1nc1ccccc12 ?
Sfp inh: -11%; ClpP mod: 14µM*; TRPV1 PAM: -14; gsp antagonist: 5%; Menin-MLL FL inh: 1.9; gsp agonist: 4%; CtBP-E1A inh: 31

How did N#CC(c1ccc(Cl)cc1)c1ncc(C(F)(F)F)cc1Cl (stereo not drawn) do in these assays?
Sfp inh: 0%; ClpP mod: -2.9%; TRPV1 PAM: 4; gsp antagonist: -23%; Menin-MLL FL inh: 3.4; gsp agonist: -15%; CtBP-E1A inh: -3

Results for O=C(COc1ccc(Cl)cc1Br)NC(=O)NCc1ccccc1 ?
Sfp inh: 20%; TRPV1 PAM: -6; gsp antagonist: 3%; Menin-MLL FL inh: 2.2; gsp agonist: -3%[15.4 µM]; CtBP-E1A inh: 3

Results for O=C(NCCC1=CCCCC1)c1ccc(Cl)cc1 ?
Sfp inh: inconclusive; TRPV1 PAM: 6; Menin-MLL FL inh: -0.2

Results for O=C(Nc1cc(Cl)ccc1Cl)C1CC(=O)N(c2ccc(Br)cc2)C1 (stereo not drawn) ?
Sfp inh: 6%; ClpP mod: -0.8%; TRPV1 PAM: -8; gsp antagonist: -6%; Menin-MLL FL inh: -0.9; gsp agonist: 4%; CtBP-E1A inh: -5

Results for O=S(=O)(Nc1ccc(N2CCOCC2)cc1)c1cccs1 ?
Sfp inh: -10%; ClpP mod: -1.4%; TRPV1 PAM: 12; gsp antagonist: 3%; Menin-MLL FL inh: 4.8; gsp agonist: -50%[inhibitor]; CtBP-E1A inh: -1

How did COc1ccc(Oc2c(O)c3ccccc3n(C)c2=O)cc1 do in these assays?
Sfp inh: inconclusive; ClpP mod: -5.7%; TRPV1 PAM: 6; gsp antagonist: 32µM*; Menin-MLL FL inh: 1.5; gsp agonist: -3%

How did CCN(CC(=O)Nc1c(F)cccc1F)C(=O)c1ccc(N2CCOCC2)c([N+](=O)[O-])c1 do in these assays?
ClpP mod: 3.6%; TRPV1 PAM: 0; gsp antagonist: 0%; gsp agonist: 2%; CtBP-E1A inh: 15

Results for CC1(C)OC(=CC=Nc2ccc(Cl)cc2)OC1(C)C ?
Sfp inh: inconclusive; TRPV1 PAM: 2; gsp antagonist: -10%; Menin-MLL FL inh: 3.0; gsp agonist: 8%; CtBP-E1A inh: 11

Results for O=C(c1ccc(Br)cc1)c1cc([N+](=O)[O-])ccc1N1CCOCC1 ?
Sfp inh: 1%; ClpP mod: 1.9%; TRPV1 PAM: -5; gsp antagonist: 76%[activator]; Menin-MLL FL inh: -2.0; gsp agonist: 11%

How did CN(C(=O)CN1C(=O)NC2(CCc3ccccc32)C1=O)C1CCS(=O)(=O)C1 (stereo not drawn) do in these assays?
ClpP mod: -3.1%; TRPV1 PAM: -9; gsp antagonist: -11%; gsp agonist: -15%; CtBP-E1A inh: -1

How did COc1ccc(C(C)NC(=S)NC2CCCC2)cc1OC (stereo not drawn) do in these assays?
Sfp inh: -8%; ClpP mod: -7.1%; TRPV1 PAM: 3; gsp antagonist: 20%; Menin-MLL FL inh: 4.8; gsp agonist: inconclusive; CtBP-E1A inh: -1

Results for CC(=O)N[C@@H]1c2c(ccc3ccccc23)OC[C@@H]1COC(C)=O ?
Sfp inh: 10%; TRPV1 PAM: inconclusive; gsp antagonist: 6%; Menin-MLL FL inh: 0.7; gsp agonist: -3%; CtBP-E1A inh: 3

How did CCc1cc(=O)n2[nH]c(-c3ccccc3)c(-c3ccccc3)c2n1 do in these assays?
Sfp inh: 3%; TRPV1 PAM: 10; gsp antagonist: -3%; Menin-MLL FL inh: 0.6; gsp agonist: 2%[15.4 µM]; CtBP-E1A inh: -5

How did Cc1c(OCc2ccccc2)c(=O)ccn1Cc1ccc(F)cc1 do in these assays?
Sfp inh: -5%; TRPV1 PAM: -21; gsp antagonist: 0%; Menin-MLL FL inh: 1.8; gsp agonist: -1%[15.4 µM]; CtBP-E1A inh: 10

Results for O=C(CC1C(=O)NC2CCCCC2N1C(=O)c1ccc([N+](=O)[O-])cc1)Nc1ccccc1 (stereo not drawn) ?
Sfp inh: 19%; ClpP mod: -0.6%; TRPV1 PAM: 6; gsp antagonist: -5%; Menin-MLL FL inh: -0.5; gsp agonist: 2%

What do the screens show for `CC(=O)Nc1ccccc1-c1nnc(SCc2ccccc2Cl)[nH]c1=O`?
Sfp inh: 12%; ClpP mod: 0.1%; TRPV1 PAM: 8; gsp antagonist: -13%; Menin-MLL FL inh: -2.6; gsp agonist: -27%; CtBP-E1A inh: -2

From PubChem
